# TRPML1 blocker: inhibitors of human TRPML1 channel; activity change, negative = inhibition, % (concentration not given with the values); AID 624415; TRPML1-inducible cells, Ca2+ dye fluorescence, FDSS; active compounds read low; inhibition of EC80 agonist-evoked calcium signal; 0.02% of 390,000 active; Q9GZU1; in the data active means activity change below about -50%; inconclusive means about -30% to -50%; inactive means above about -30%;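 also: stimulus is agonist 54-4 at its EC80 concentration; % is scaled to controls: 0 for no effect and ±100 for the full control effect; the text of the record puts the active cut at -80%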
# Target sequence (Q9GZU1 whole entry, looked up): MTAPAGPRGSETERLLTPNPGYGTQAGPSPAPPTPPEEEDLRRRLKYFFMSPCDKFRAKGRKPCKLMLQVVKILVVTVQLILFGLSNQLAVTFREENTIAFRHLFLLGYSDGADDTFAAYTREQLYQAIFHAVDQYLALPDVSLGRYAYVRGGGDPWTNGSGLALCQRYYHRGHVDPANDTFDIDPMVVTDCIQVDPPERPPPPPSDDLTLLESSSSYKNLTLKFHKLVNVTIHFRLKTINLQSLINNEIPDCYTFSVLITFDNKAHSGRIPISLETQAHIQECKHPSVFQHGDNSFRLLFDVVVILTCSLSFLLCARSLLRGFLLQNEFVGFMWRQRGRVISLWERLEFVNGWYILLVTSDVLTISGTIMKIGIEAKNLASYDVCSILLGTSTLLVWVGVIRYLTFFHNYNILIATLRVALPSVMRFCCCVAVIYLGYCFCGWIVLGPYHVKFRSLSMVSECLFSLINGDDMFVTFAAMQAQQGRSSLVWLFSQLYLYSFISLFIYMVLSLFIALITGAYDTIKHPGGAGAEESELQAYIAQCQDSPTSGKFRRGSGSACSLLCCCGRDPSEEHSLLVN
#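 Calcium fluorescence in TRPML1-DL cells induced overnight with Tet: a 110 s read after compound pin addition, then a 110 s antagonist read after challenge with 54-4 at 4 uM final (EC80).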
# TRPV1 potentiator: human TRPV1 potentiation; 0.02% of 320,000 active; potentiation, % at 8.33 µM; TRPV1-expressing cells, Fluo-8 calcium influx, capsaicin EC20 potentiation; host cell line not named in the record; control for the full effect not named in the record; Q8NER1; active means potentiation above 80%; inconclusive means 30% to 80%; inactive means below 30%; also: 0% is about no effect
#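 Fluo-8 calcium influx in TRPV1-expressing cells, kinetic read (ex 480/em 520 nm). Compound added and read 3 min for agonist activity, followed by capsaicin at EC20 final and 2 min further read for enhancement.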
# Sfp inh: Sfp phosphopantetheinyl transferase inhibition | Biochemical Sfp PPTase activity, qHTS | Q9F4F7 | 3.5% of 310,000 active | Potency, µM, inactives show max response, negative = inhibition, usual class: inhibitors | AID 1490; active = well fitted inhibition curve with a large enough effect; inconclusive = small, poorly fitted or top-dose-only effect, or another doubt; inactive = no such curve, though single readings can be large or run the other way;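 also: the enzyme is Sfp with the accession as filed and its product quenches rhodamine fluorescence; potency is read from the fitted curve at half-maximal effect; 0% = enzyme reaction without inhibitor and -100% = no enzyme wells; top concentration of the series not given in the record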
#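 Compounds were incubated with enzyme (final 15 nM) for 15 min at room temperature before substrate addition started the reaction. Fluorescence at 525 nm excitation, 598 nm emission was recorded immediately and after 30 minutes.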
# gsp antag: antagonizes gsp, the McCune-Albright syndrome mutation; 0.4% of 340,000 active; Potency, µM (highest dose often 76.9 µM), for the others: top-dose activity change, negative = inhibition, usual class: inhibitors; gsp-mutant cells, cAMP HTRF, 30 min; control for the full effect not named in the record; active = falling curve of any shape with a large fitted effect; inconclusive = falling curve, mostly with a smaller effect; inactive = flat or rising curve; cell line not stated here;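 also: intracellular cAMP measured with PDE inhibitor Ro 20-1724 present during compound exposure; potency is read from the fitted curve at half-maximal effect; % is scaled to controls: 0 for no effect and ±100 for the full control effect; nearly all actives have a fitted effect of over 65% in size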
#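 Cells in G418 medium, seeded 16-24 h, 37C; buffer exchange to DPBS + 1 mM CaCl2, 0.5 mM MgCl2, 0.05% BSA; cpds in DMSO + […] (300 uM stock), 30 min 37C; HTRF cAMP detection.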
# Menin MLL FP FL: menin-MLL binding inhibition, fluorescein peptide; Fluorescence polarization, fluorescein-MLL peptide displacement from menin; 290,000 tested, under 10 active; FP activity change, % at 61.4 µM; inconclusive = falling polarisation curve, or a change in total fluorescence; inactive = total fluorescence flat and polarisation flat or rising; no compound was filed as active; the % refers to the polarisation; negative = inhibition;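 also: % of control where 0% means no effect; inhibitors lower the polarisation; unlabelled MLL peptide was the positive control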
# ClpP mod: qHTS Assay for Activators of ClpP | ATP-dependent Clp protease proteolytic subunit (Bacillus subtilis (strain 168)), P80244 | purified B. subtilis ClpP, FRET peptide cleavage, 20 min | Potency, µM (titrated, usually from 57.5 µM), inactives show at the top dose activity change, negative = active | 1.9% of 340,000 active; active = well fitted falling curve with a large enough effect; inconclusive = small, poorly fitted or top-dose-only effect; inactive = no such curve, though single readings can be large or run the other way; also: potency is read from the fitted curve at half-maximal effect; the source files actives as falling curves though it sought activators and does not explain the sign; nearly all actives have a fitted effect of over 65% in size; many hits overshoot -100%
# Target sequence (P80244 whole entry, looked up): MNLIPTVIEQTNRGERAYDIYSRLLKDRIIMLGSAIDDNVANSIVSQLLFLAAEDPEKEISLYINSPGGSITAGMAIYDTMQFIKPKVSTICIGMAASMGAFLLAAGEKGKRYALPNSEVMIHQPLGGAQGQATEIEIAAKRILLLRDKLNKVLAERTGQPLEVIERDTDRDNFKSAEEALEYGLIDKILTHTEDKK
#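 Buffer: 100 mM Tris/HCl pH8, 100 mM KCl, 0.05% low protease BSA, 2.5% glycerol, 0.01% Tween-20. ClpP 10 microg/mL final; 20 min RT; delta FRET normalized to ADEP and DMSO controls.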
# gsp agonist: agonists of gsp mutant (McCune-Albright syndrome); 0.13% of 340,000 active; Potency, µM (doses to about 76.9 µM), for inactives: top-dose activation (cAMP increase), most hits filed as activators; gsp mutant cells, cAMP HTRF, 30 min; control for the full effect not named in the record; AID 624287; active = well fitted activation curve with a large enough effect; inconclusive = small, poorly fitted or top-dose-only effect, or another doubt; inactive = no such curve, though single readings can be large or run the other way; cell line not stated here;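 also: phosphodiesterase inhibitor Ro 20-1724 added with compounds to block cAMP breakdown; potency is read from the fitted curve at half-maximal effect; nearly all actives have a fitted effect of over 60% in size; about a fifth of the inactives were tested at one dose only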
#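 Cells in DMEM/10% FBS with G418 were pretreated with compounds in DMSO plus […] (300 uM stock) for 30 min at 37C. cAMP was measured by HTRF (cAMP-d2 plus anti-cAMP antibody-K) after 30 min at room temperature.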
# Starred values were filed as active, the others as inactive; ? = inconclusive; . = no result given; [ ] = another dose, or the depositor's remark.
[1] CC(C)(C)SCCNC(=O)CN1C(=O)c2ccccc2S1(=O)=O
[2] COc1ccccc1N1CCN(/N=C/c2cccc(O)c2)CC1
[3] O=C(CN(C(=O)CNS(=O)(=O)c1ccc(F)cc1)c1ccccc1)NCc1ccco1
[4] CCCN(CCC)c1nc(C)cc(C(C#N)c2nc3ccccc3o2)n1 (stereo not drawn)
[5] COc1ccc(C2C(C#N)=C(N)Oc3cc(C)n(Cc4ccco4)c(=O)c32)cc1 (stereo not drawn)
[6] COC(=O)CSc1nnc(COc2ccc([N+](=O)[O-])cc2)n1C
[7] COc1ccc(CN(CC(=O)NCc2ccccc2)C(=O)CCC(=O)Nc2nccs2)cc1
[8] CCn1ncc(C2=NOC(C(=O)NCC(C)C)C2)c1C (stereo not drawn)
assay / compound | 1 | 2 | 3 | 4 | 5 | 6 | 7 | 8
TRPML1 blocker | 16 | 11 | -7 | . | 39 | -7 | -5 | 4
TRPV1 potentiator | -5 | -5 | 7 | 2 | 9 | 0 | 11 | 2
Sfp inh | 2% | 12% | 8% | 1% | 32µM* | 17% | 9% | 16%
gsp antag | 0% | 1% | 3% | . | -3% | -13% | 6% | 16%
Menin MLL FP FL | -0.9 | -4.3 | . | 5.1 | ? | -0.4 | 5.1 | 4.1
ClpP mod | -1.4% | 0.1% | . | . | -6.1% | . | . | -0.3%
gsp agonist | 5% | -2% | -23%[15.4 µM] | . | ? | -7% | -23% | 1%

[9] COc1ccc2cc(C(=O)N3CCN(c4ccccc4OC)CC3)[nH]c2c1
[10] OC(CNC1CCCCC1)CON=C1CCSc2c(Cl)cccc21 (stereo not drawn)
[11] CCC1(CC)C(=O)NC(=O)NC1=Nc1cccc(OC)c1
[12] Cc1ccc(OCC(=O)NC2CCS(=O)(=O)C2)c(C)c1 (stereo not drawn)
[13] CC1(C)Cc2c(cnn2-c2cccc(F)c2)C(NC(=O)CSc2ccccn2)C1 (stereo not drawn)
[14] COc1ccc(NC(=O)c2cc3c(=O)n(C)c4ccccc4c3n2C)cc1Cl
[15] CO/N=C(/CNC(=O)c1cccc(Cl)c1)c1ccc(Cl)cc1
[16] COCCN(CCOc1cc(C)cc(C)c1)Cc1ccc(Cl)cc1
assay / compound | 9 | 10 | 11 | 12 | 13 | 14 | 15 | 16
TRPML1 blocker | -6 | 28 | 8 | 1 | -16 | -13 | -12 | 9
TRPV1 potentiator | 14 | . | ? | 7 | -18 | -6 | -14 | 0
Sfp inh | 3% | . | -4% | 6% | 20% | -4% | 15% | 5%
gsp antag | -5% | . | -2% | 17% | 1% | 2% | -15% | 1%
Menin MLL FP FL | 10 | . | -0.5 | . | 0.2 | 0.0 | -1.1 | 0.7
ClpP mod | -2.3% | -3.9% | -0.6% | 0.8% | 1.4% | . | 1.1% | 0.8%
gsp agonist | -18% | -34%[inhibitor] | ? | ? | 0% | -10%[15.4 µM] | -35%[inhibitor] | -2%

[17] O=C(O)c1cccc(COc2ccc3c(c2)CCC3)c1
[18] Cc1cccc(N2CCN(Cc3cn(C)nc3-c3ccccc3F)CC2)n1
[19] CCOCCCNC(=O)CN1C(=O)CSc2ccccc21
[20] CCN(CC)S(=O)(=O)c1ccc(N2CCCC2)c(NC(=O)c2nn(C)c(=O)c3ccccc23)c1
[21] CC(C)N(Cc1nc(-c2ccccc2)no1)C(=O)C1CCCCC1
[22] O=C(c1ccccc1)N1N=C(c2ccc(F)cc2)CC1(O)C(F)(F)F (stereo not drawn)
[23] Cc1ccc(/C(N)=N/OC(=O)c2cccc(F)c2)cc1
[24] CC(=O)Nc1ccc(C(=O)NN2C(=O)NC3(CCCCC3)C2=O)cc1
assay / compound | 17 | 18 | 19 | 20 | 21 | 22 | 23 | 24
TRPML1 blocker | 16 | 0 | -9 | 5 | 2 | 25 | 34 | 0
TRPV1 potentiator | 8 | 11 | 3 | 2 | -3 | 2 | -1 | -14
Sfp inh | 6% | 16% | 21% | . | 5% | -1% | 1% | .
gsp antag | -6% | 3% | 9% | 18% | 3% | -9% | 10% | 18%
Menin MLL FP FL | 9.9 | -0.6 | 2.9 | . | -0.6 | 0.8 | -12 | .
ClpP mod | . | . | 0.4% | -1.7% | 0.5% | -0.2% | -1.1% | .
gsp agonist | 7%[15.4 µM] | -14%[15.4 µM] | -41% | 18% | ? | -19% | -1% | -3%[15.4 µM]

[25] COc1ccc(-n2nc(C(=O)NCC(=O)NC3CCCCC3)c3ccccc3c2=O)c(OC)c1
[26] O=C(Nc1ccccc1)c1ccc(S(=O)(=O)NCc2ccco2)cc1
[27] N/N=C(\c1ccccc1)c1cc(Br)ccc1N
[28] O=C(Nc1ccc(O)cc1)c1ccc2c(c1)C(=O)N(Cc1cccnc1)C2=O
[29] COC(=O)CNS(=O)(=O)c1ccc(Cc2ccc(S(=O)(=O)NCC(=O)OC)cc2)cc1
[30] CCC(=O)c1ccc(OCC(=O)NC2(C#N)CCCCC2)cc1
[31] COC(=O)c1cc(C(C)=O)n2ccccc12
[32] CCCCN(C(=O)c1cccs1)c1c(N)n(Cc2ccccc2)c(=O)[nH]c1=O
assay / compound | 25 | 26 | 27 | 28 | 29 | 30 | 31 | 32
TRPML1 blocker | -16 | 7 | 17 | 14 | 13 | -3 | 23 | 5
TRPV1 potentiator | 3 | -9 | -7 | -4 | 10 | -8 | 10 | .
Sfp inh | -6% | 3% | 1% | 18% | 21% | 22% | 14% | .
gsp antag | 5% | -10% | -21% | -1% | ? | -23% | 4% | -8%
Menin MLL FP FL | 1.9 | -1.0 | -2.4 | 1.8 | 1.7 | -5.4 | 1.0 | .
ClpP mod | 0.3% | 5.1% | 73% | 1.5% | -0.1% | . | 3.0% | -2.2%
gsp agonist | -2%[15.4 µM] | 0% | 22%[15.4 µM] | -9% | -49%[inhibitor] | -2%[15.4 µM] | 9% | 1%

[33] O=C(CSc1ncn[nH]1)Nc1ccccc1-c1ccccc1
[34] COCCN(C(=O)CSc1nnc(Nc2ccc(C)cc2)s1)c1c(N)n(CC(C)C)c(=O)[nH]c1=O
[35] COc1ccc(C2C3=C(CC(C)(C)CC3=O)Nc3cc4c(cc32)OCO4)cc1 (stereo not drawn)
[36] Cc1ccc(OCC(=O)N/N=C/c2ccc3c(c2)OCO3)cc1C
[37] COc1cccc(C(=O)NCC(=O)N/N=C/c2cccnc2)c1
[38] CC(C)CC(=O)NCCCN1CCN(CCCNC(=O)CC(C)C)CC1
[39] O=C(CSc1nc2cc(Cl)ccc2s1)N1CCCc2ccccc21
[40] C#CC(C)(C)NC(=O)c1sccc1Oc1ccc(F)cc1[N+](=O)[O-]
assay / compound | 33 | 34 | 35 | 36 | 37 | 38 | 39 | 40
TRPML1 blocker | 15 | 4 | -3 | -7 | 10 | -7 | -3 | 26
TRPV1 potentiator | -7 | 14 | -14 | -6 | -5 | -5 | -4 | -9
Sfp inh | 7% | 10% | -9% | -12% | 10% | 7% | -9% | 5%
gsp antag | -10% | 10% | -2% | -3% | 11% | 4% | -10% | 2%
Menin MLL FP FL | 2.3 | 2.0 | -2.7 | -2.1 | 0.5 | 4.6 | -0.6 | -1.5
ClpP mod | -3.3% | . | -1.9% | ? | -0.7% | -3.2% | -7.2% | .
gsp agonist | 12% | -5%[15.4 µM] | 1%[15.4 µM] | 29% | 29% | -60%[inhibitor] | -52% | -12%[15.4 µM]

[41] COc1cc(OC)c(C(=O)OCC(=O)NC2CCCCCCC2)cc1OC
[42] Cc1cc(CN2C(=O)c3ccccc3C2=O)no1
[43] COCCOC(=O)c1sc2nc[nH]c(=O)c2c1C
[44] O=C(NCc1ccccc1)C1=C[C@H](c2ccc(Br)cc2)C[C@H](OCCCCO)O1
[45] Cc1nonc1NC(=O)CSc1nnnn1-c1ccccc1
[46] S=c1[nH]nc(Cc2cccc3ccccc23)o1
[47] Cc1ccc(NC(=O)C(=O)NCC2CCCN2S(=O)(=O)c2cccs2)cc1 (stereo not drawn)
[48] Cc1cccc(Cn2c(N(C)CCO)nc3c2c(=O)[nH]c(=O)n3C)c1
assay / compound | 41 | 42 | 43 | 44 | 45 | 46 | 47 | 48
TRPML1 blocker | 24 | -7 | 20 | -5 | -18 | 0 | -6 | -19
TRPV1 potentiator | . | -10 | 3 | . | 0 | 7 | 23 | -17
Sfp inh | . | 8% | 12% | . | 9% | 12% | . | 16%
gsp antag | -4% | 9% | -1% | -1% | 4% | -7% | -1% | 1%
Menin MLL FP FL | . | 1.8 | -8.9 | . | -0.2 | 8.3 | . | 0.9
ClpP mod | -3.4% | -3.7% | . | -0.2% | . | 28µM* | -0.7% | -4.5%
gsp agonist | -36%[inhibitor] | 7%[15.4 µM] | -6% | 0% | 1%[15.4 µM] | -63% | ? | -3%

# From PubChem BioAssay
